# Assay outcomes as filed in PubChem BioAssay.
# Vif A3G = inhibitors of Vif binding to APOBEC3G peptide, primary screen, biochemical, TR-FRET, GST-Vif 1-94, biotin-A3G peptide, dose response retest (AID 1117319) | hit rate 0.57% among 260,000 | one-dose inhibition, %; IC50 in µM for titrated hits | TR-FRET GST-Vif / biotin-A3G peptide binding; higher % means a stronger effect; test concentration not given here; strong numbers were not always called active;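 active = above the screen mean plus three standard deviations and confirmed in dose response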;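 also: Vif residues 1-94 fused to GST binding biotinylated APOBEC3G peptide 110-148; 0% = full assay without inhibitor and 100% = GST in place of GST-Vif; retest series ran down from 100 µM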
# Ecoli growth = inhibitors of Escherichia coli growth; hit rate 0.21% among 330,000; OD600 absorbance (concentration not given with the values); AID 1053175; OD600, 23 h; stronger effect = lower value;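 active = OD600 absorbance below the run mean of sample wells minus 3.6 SD, in any replicate, cut at about 0.56 in these data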;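 also: stock transfer was 300 nL into about 60 µL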
# HNF4A DNA FP = change in binding of human HNF4 alpha to DNA | HNF4a-FITC DNA binding, fluorescence polarization, 1 h | AID 1224865 | hit rate 0.3% among 360,000 | activity change, % at 10 µM | P41235; in the data active = activity change above about 30%, passing the limit was not always enough;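 also: controls were the assay level and a saturating level of protein; the project sought stronger binding though the title names inhibitors; some compounds called inactive have numbers as strong as hits; positive values seem to mean higher polarization but the record does not say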
# A1 inh = inhibitors of the anti-apoptotic protein A1, read as caspase activation | hit rate 0.066% among 330,000 | MEF A1-2A-BIM cells, Caspase-Glo 3/7 luminescence, 3 h; percent of clofoctol response, vehicle zero | AID 2462 | caspase activation, % (no concentration beside the values);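 active = over half of replicate activation scores above 10%, or exactly half above 10 with the replicate mean above 10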;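 also: wells of about 30 µL received 50 nL stock; many hits fall short of the cut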
# Beta2AR agonist = human beta-2 adrenergic receptor agonism by FAP; Am2.2-beta2AR cells, FAP receptor internalization, flow cytometry; reference of the scale not given here; hit rate 0.43% among 340,000; response, % (test concentration not listed); P07550;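 active = response above a set limit, near 3 SD of response in nonfluorescent compounds, cut at about 42% in these data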;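 also: stock transfer was 100 nL into about 11 µL; a reference agonist was the positive control; negative values mostly stem from fluorescent compounds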
# Target sequence (P07550 whole entry, looked up): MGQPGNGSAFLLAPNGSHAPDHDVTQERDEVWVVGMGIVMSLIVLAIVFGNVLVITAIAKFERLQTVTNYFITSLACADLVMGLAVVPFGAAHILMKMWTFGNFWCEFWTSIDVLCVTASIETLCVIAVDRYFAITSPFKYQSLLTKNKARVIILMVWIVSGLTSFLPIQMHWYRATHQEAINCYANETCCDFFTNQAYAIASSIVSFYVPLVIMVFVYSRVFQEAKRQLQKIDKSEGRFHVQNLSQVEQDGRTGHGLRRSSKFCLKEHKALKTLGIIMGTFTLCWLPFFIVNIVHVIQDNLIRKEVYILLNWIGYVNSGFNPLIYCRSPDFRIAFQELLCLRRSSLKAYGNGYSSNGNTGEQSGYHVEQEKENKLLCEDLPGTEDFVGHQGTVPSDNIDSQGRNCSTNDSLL
# UCH37 inh = human UCH37 deubiquitinating enzyme inhibition; Q9Y5K5; purified proteasome/UCH37, Ub-AMC cleavage fluorescence; inhibition, % (concentration not given with the values); hit rate 0.33% among 330,000;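 active = mean of two replicates above 20%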;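 also: 0% = compound-free wells with enzyme and 100% = wells lacking proteasome; stock transfer was 100 nL into about 20 µL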
# Target sequence (Q9Y5K5 whole entry, looked up): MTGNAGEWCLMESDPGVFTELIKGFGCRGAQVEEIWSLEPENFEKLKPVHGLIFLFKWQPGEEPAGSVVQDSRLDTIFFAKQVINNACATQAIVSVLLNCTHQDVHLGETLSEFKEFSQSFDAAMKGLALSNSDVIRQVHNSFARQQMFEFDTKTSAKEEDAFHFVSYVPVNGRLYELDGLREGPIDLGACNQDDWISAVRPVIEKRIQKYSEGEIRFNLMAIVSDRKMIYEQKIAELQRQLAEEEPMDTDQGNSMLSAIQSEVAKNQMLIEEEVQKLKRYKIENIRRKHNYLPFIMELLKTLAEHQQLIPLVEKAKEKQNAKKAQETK
#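 Assay system: Proteasome-bound UCH37. Buffer or medium: pH 7.4 Tris-HCl (50 mM) with ovalbumin, ATP-MgCl2, DTT. Incubation: 30 min preincubation with enzyme, 25 min cleavage at room temperature. Measured by: fluorescence, ex 355 nm, em 460 nm. Read-out basis: percent inhibition. Control set: wells without proteasome as full block, compound-free enzyme plus substrate as uninhibited.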
# LANA-H2A inh = blocks KSHV LANA binding to histone H2A/H2B; cell-free LANA-H2A/H2B peptide, fluorescence polarization; hit rate 0.6% among 320,000; Q9QR71; inhibition, % (no concentration beside the values); AID 2629; in the data active = inhibition mostly above about 10%, no sharp cut-off; inactive = mostly below about 6.7%;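 also: stock transfer was 7.5 nL into about 10 µL; 0% = median of vehicle wells and 100% = median of positive control wells; one replicate is shown; the record names a cut of 25% in any replicate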
# Starred values were filed as active, the others as inactive; nt = no result given; & = joins results of further samples; ! = repeats disagree. Rows are unselected, and some 2.1% of all compounds hit somewhere here.
compound	Vif A3G	Ecoli growth	HNF4A DNA FP	A1 inh	Beta2AR agonist	UCH37 inh	LANA-H2A inh
CC1=C(C#N)C(c2cccnc2)C2=C(N1)c1ccccc1C2=O (stereo not drawn)	5%	0.72	-0.7	0.9	1	2.8	-4.2
O=C1C2C3C=CC(O3)C2C(=O)N1Nc1ccccc1 (stereo not drawn)	2%	0.65	6.0	nt	-5	1.7	nt
Cc1noc(C)c1CSc1ncnc2sc3c(c12)CCCCC3	nt	0.68	2.4	-0.3	-6	1.5	3.4
Cn1ncc(Br)c1C(=O)Nc1ccc(Br)cn1	-14%	nt	0.9	-0.8	-17	nt	-0.5
Cc1cc(-c2ccccc2)nc2cc(C(=O)NCCCn3ccnc3)nn12	3%	0.74	3.1	0.1	33	-16	-0.6
CN(C)CCCn1cnc2c1c(=O)[nH]c(=O)n2Cc1ccccc1	2%	0.66	-0.2	0.3	7	0.7	0.7
CC(=O)Nc1ccc(S(=O)(=O)NN=CCCc2ccccc2)cc1	0%	0.66	2.9	nt	-3	2.8	nt
CN(C(=O)c1ccc(NC(=O)Cc2cccc(NC(=O)C3CCCN(C(=O)CCc4ccccc4)C3)c2)cc1)C1CC1 (stereo not drawn)	nt	0.67	-1.1	nt	1	-2.0	nt
CC1Oc2ccccc2N(CC(=O)NCCc2ccccc2)C1=O (stereo not drawn)	13%	0.66	4.5	-0.4	8	0.2	2.8
O=C(O)c1ccc(-c2nc3ccccc3[nH]2)cc1	-1%	nt	0.9	-7.5	2	nt	5.9
COc1ccc(C(=O)NCCc2cn3ccc(C)cc3n2)cc1	1%	0.77	1.7	0.0	-3	0.3	2.1
COC(=O)c1ccc(Sc2ccc(F)cc2)c(N)c1	2%	0.71	-4.0	0.1	-4	-145	2.8
O=C(Cn1cnc2c(nnn2Cc2ccc(Cl)cc2)c1=O)NCc1ccco1	>100µM*	0.66	4.3	0.1	-10	2.9	-5.0
NC(=O)CS(=O)(=O)c1nc2ccccc2n1CC(=O)N1CCCCC1	5%	0.69	-0.7	0.7	8	1.7	2.1
CN1CCN(CC(O)c2ccccc2)CC1 (stereo not drawn)	-2%	nt	nt	-0.4	nt	nt	-1.1
CCCN(C(=O)CCNC(=O)Cn1cnc2ccccc2c1=O)c1cccc(C)c1	nt	0.72	-3.3	-0.5	-10	3.8	-5.1
O=c1cnnc(N/N=C/c2cccs2)[nH]1	nt	nt	2.7	-0.1	16	nt	-2.4
O=C(CN1CCN(c2nc(-c3ccc(F)cc3)cs2)CC1)Nc1ccc2c(c1)OCO2	8%&-9%	0.68	0.6	-0.5	-3	2.1	-18
COc1cc(NC(=O)CCn2c(=S)oc3ccccc32)cc(OC)c1OC	2%	0.69	-1.5	0.1	0	0.5	0.8
COc1ccc(CCN2C(=O)CC(NNC(=O)c3ccccc3Br)C2=O)cc1OC (stereo not drawn)	nt	0.67	-3.2	1.1	1	3.8	-0.3
C[C@]12CC[C@@H]3c4ccc(O)cc4CC[C@H]3[C@@H]1CCC2=O	24%	nt	-1.4	-0.6	2	0.6	40*!
Cc1c(CN(C)C(=O)/C=C/c2ccc([N+](=O)[O-])cc2)cnn1C	19%	0.66	3.1	-0.6	2	9.8	2.6
NCC(=O)c1cccc2ccc[n+]([O-])c12	1%	0.61	-3.2	-0.1	2	12	3.1
COc1ccc(OC)c(NC(=O)CCN2CCN(CCO)CC2)c1	nt	0.72	0.8	0.3	7	1.2	1.1
Cc1ccc(NC(=O)CN(C)C2CCCCC2)cc1Cl	nt	0.67	-1.5	-0.1	5	5.2	4.7
COc1cccc(CSCC(=O)NCCc2ccccc2)c1OC	2%	0.68	-6.2	-0.3	-6	-0.1	4.0
CCCCNC(=O)CSc1nc2n[nH]c(C)c2c(=N)n1-c1cccc(Cl)c1C	-15%	0.75	-0.2	-0.6	-15	-4.4	0.8
NC(=O)C1CCN(C(=O)c2cc3ccccn3n2)CC1	4%	0.77	1.3	-0.3	-9	4.8	1.7
CCCNC(=O)N1CCN(c2ncccn2)CC1	12%	0.74	-1.0	0.5	4	-2.7	0.4
CC(=O)c1cc2c(cc1NC(=O)CN(C)S(=O)(=O)c1cccs1)OCO2	nt	0.7	3.3	0.1	-4	-23	-2.0
CCCCCn1c(SCC(=O)OC)nc2c1c(=O)[nH]c(=O)n2C	5%	0.73	-0.1	-0.7	10	6.2	-0.1
CC(c1ccco1)N(C(=O)CSc1ccc(Br)cc1)c1ccccn1 (stereo not drawn)	3%	0.68	1.6	-0.4	7	4.6	4.0
Cc1ccc(N2C(=O)C3C(C2=O)C2C=CC3C23CC3)c([N+](=O)[O-])c1 (stereo not drawn)	-2%	0.7	-6.3	0.6	-9	5.2	-2.7
CC(OC(=O)c1ccc(Cl)c([N+](=O)[O-])c1)C(=O)N1CCN(Cc2ccccc2)CC1 (stereo not drawn)	-5%	0.67	1.7	-0.2	22	2.6	0.0
Cc1ccccc1CSc1nnc(NC(=O)Cc2cccs2)s1	nt	0.7	1.4	0.6	5	0.0	4.1
Cc1oc2ccc(OCc3c(F)cccc3Cl)cc2c1C(=O)O	1%	0.67	0.9	-0.8	9	6.8	4.8
COc1ccc(C(=O)/C(C)=N/O)cc1OC	-6%	nt	0.2	0.0	1	nt	-0.8
CC(=O)N1N=C(c2cccs2)CC1c1cc2cc(C)ccc2nc1Cl (stereo not drawn)	-1%	0.63	5.2	0.6	-6	-124	-6.1
CCCn1cc(SCC(=O)NC2CCCC2)c2ccccc21	nt	0.71	-3.8	-1.1	-3	2.9	2.8
Cc1nc2scc(C)n2c(=O)c1S(=O)(=O)N1CCN(c2ccccc2F)CC1	nt	0.68	-3.8	0.3	-9	1.9	-0.7
CC(C(=O)Nc1ccc(C(=O)O)c(O)c1)N1C(=O)/C(=C\c2ccco2)SC1=S (stereo not drawn)	nt	0.73	-14	-1.1	6	19	5.2
Cc1cc2nc(SC(C)C(=O)O)[nH]c2cc1C (stereo not drawn)	4%	0.7	0.7	0.4	-3	5.5	-0.7
COC(=O)C1C(=O)c2c([nH]c(C(=O)OC3CCCC3)c2C)CC1C (stereo not drawn)	-2%	0.75	0.2	-0.7	2	2.4	-0.4
O=C(c1ccccc1)N1CCN=C1c1ccccc1	11%	0.62	0.2	-0.4	1	-0.3	9.0
COc1ccc(Nc2nc(C(=O)N3CCc4ccccc4C3)cs2)cc1	11%	0.67	-0.1	2.3	-1	3.5	19*
Cc1cc(C)n2c(SCC(=O)NCc3ccc4c(c3)OCO4)nnc2n1	9%	0.65	3.3	-0.2	-15	2.0	2.4
O=C(CSc1nnc(-c2ccc(F)cc2)c2ccccc12)Nc1cccc(Cl)c1	-9%	0.67	3.8	-0.1	-13	0.5	-5.9
COc1cccc(NC(=S)N/N=C2/CCCCc3ccccc32)c1	13%	nt	3.0	nt	-1	nt	nt
CC(=O)c1cccc(NC(=O)CSc2nc(=O)n(CCN3CCOCC3)c3c2CCC3)c1	1%	0.66	1.8	-0.2	3	7.2	-1.7
CCOc1cc(/C=N/NC(=O)c2ccccn2)ccc1OC(=O)c1ccc(F)cc1	-2%	nt	-1.2	-0.6	-3	nt	1.2

# The listing continues:
compound	Vif A3G	Ecoli growth	HNF4A DNA FP	A1 inh	Beta2AR agonist	UCH37 inh	LANA-H2A inh
CC(NC(=O)C1CCC(CNS(=O)(=O)c2ccccc2)CC1)c1ccc2c(c1)OCCO2 (stereo not drawn)	4%	0.7	nt	1.2	nt	0.7	-2.4
O=C(NCCCN1CCN(CCCNC(=O)c2cccc([N+](=O)[O-])c2)CC1)c1cccc([N+](=O)[O-])c1	1%	0.69	1.5	0.1	-3	3.1	0.8
CC(=O)Nc1ccc2nc(NC(=O)CCc3ccccc3)sc2c1	nt	0.68	2.4	0.7	-3	5.0	-0.5
CCn1cc(C(=O)O)c(=O)c2cc(F)c(N3CCN(C(=S)NC(=O)c4cc(OC)cc(OC)c4)CC3)cc21	nt	0.083*	-0.4	-0.1	5	-19	-0.7
COc1ccc(C(=O)NCCOc2ccccc2Cl)c(OC)c1OC	3%	0.68	-3.3	-0.3	-1	5.4	7.0
CCOc1ccccc1N1CCN(C(=O)c2ccccc2SCC(=O)N2CCCC2)CC1	nt	0.68	-2.3	0.4	6	1.0	-0.6
CCOc1ccc(-c2ccc(SCC(=O)NCC3CCCO3)nn2)cc1 (stereo not drawn)	33%	0.63	0.0	-0.9	-3	-2.1	-2.2
Cc1nn(-c2c(Cl)cc(Cl)cc2Cl)c(=O)c2ccccc12	77%	0.72	0.3	0.5	-3	2.8	2.1
CCOC(=O)c1nn(-c2ccc(F)cc2)c2c1CC/C2=C/c1ccccc1	-9%	nt	1.6	0.6	0	-24	4.6
CSc1ncccc1C(=O)Nc1nc(C(C)(C)C)cs1	nt	0.69	2.2	-0.1	-1	5.8	-4.9
O=[N+]([O-])c1ccc(Cc2nnc(-c3ccccc3Cl)o2)cc1	nt	0.68	5.7	0.9	-5	6.7	-0.1
Cc1ccc(NC(=O)C(c2ccccc2)C2CCCC2)cc1 (stereo not drawn)	nt	0.71	3.7	nt	-4	2.3	nt
O=C(O)CN(c1ccc(F)cc1)S(=O)(=O)c1ccc2c(c1)OCCO2	0%	0.72	3.5	0.4	8	1.0	-1.4
Cc1ccc2c(n1)sc1c(-c3ccc(Br)cc3)c(C#N)c(N)nc12	-17%	0.72	5.2	0.0	9	-27	-1.3
Cc1cc(O)c(C(C)C)cc1NC(=O)Nc1cc(Cl)ccc1Cl	8%	0.71	-1.2	nt	1	6.2	nt
CCOC(=O)CCc1c(C)c2c(C)nn(-c3ccccc3)c2[nH]c1=O	16%	0.74	0.5	-0.2	4	3.0	1.0
O=C(O)c1ccn[nH]1	nt	0.67	-1.5	0.3	nt	0.7	1.1
CC(=O)OCC1=C(C(=O)O)N2C(=O)C(NC(=O)C(C)Cn3cc(Cl)cn3)C2SC1 (stereo not drawn)	-2%	0.71	-6.8	0.4	7	4.9	5.8
CCN(CC)CCCNC(=O)c1ccc2c(=O)n(Cc3ccc4c(c3)OCO4)c(=S)[nH]c2c1	6%	0.71	-0.8	0.3	10	0.3	-0.9
CSCCC(NC(=O)c1ccccc1)C(=O)NNC(=O)c1csc(N2CCOCC2)n1 (stereo not drawn)	nt	0.74	3.4	0.0	-2	0.6	-1.6
O=C(Nc1ccccc1N1CCOCC1)c1cc(Br)c(Br)s1	-78%	0.72	-1.3	-0.3	-1	1.0	-5.2
COc1ccc(NC(=O)c2cn(C)c(=O)c3cc(OC)c(OC)cc23)cc1OC	-2%	0.68	2.9	0.1	7	3.5	0.9
CCc1ccc(NC(=O)COC(=O)c2ccc(Cl)c(S(=O)(=O)N3CCCCCC3)c2)cc1	1%	0.75	-1.8	0.2	5	4.1	-1.0
COCCn1nnnc1C(c1cc(OC)ccc1OC)N1CCc2ccccc2C1 (stereo not drawn)	15%&4%	0.75	3.8	0.4	-2	5.9	3.3
Cc1ccc(NC(=S)Nc2ccccn2)c(C)c1	26%	0.63	-0.3	-2.8	3	1.7	0.4
Cc1nn(-c2ccccc2)c(Cl)c1/C=N/Nc1nc2ccccc2n1C	8%	nt	-1.5	-7.3	2	nt	4.2
